# Bioassay records (PubChem BioAssay)
# Vif TR-FRET – inhibitors of Vif binding to APOBEC3G peptide, primary screen, biochemical, TR-FRET, GST-Vif 1-94, biotin-A3G peptide, dose response retest (AID 1117319). TR-FRET GST-Vif / biotin-A3G peptide binding; higher % means a stronger effect; test concentration not given here; strong numbers were not always called active. one-dose inhibition, %; IC50 in µM for titrated hits. 260,000 compounds, 0.57% hits;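 active means above the screen mean plus three standard deviations and confirmed in dose response; inconclusive means results disagree or hit not tested in dose response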;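 further: Vif residues 1-94 fused to GST binding biotinylated APOBEC3G peptide 110-148; 0% = full assay without inhibitor and 100% = GST in place of GST-Vif; retest series ran down from 100 µM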
# Calb FLC – affects C. albicans growth with fluconazole; C. albicans CaCi-2 (fluconazole-resistant clinical isolate) + fluconazole, Alamar Blue growth, 48 h; growth inhibition, % (test concentration not listed); 300,000 compounds, 0.57% hits; AID 1979;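 active means most replicates above 75%; inconclusive means exactly half above 75%; inactive means most below 75%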;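 further: all wells also contain fluconazole at 8 µg/ml as a sub-toxic cotreatment; 0% = median of DMSO wells and 100% = median of geldanamycin control wells; wells of about 8 µL received 7.5 nL stock; the first replicate is given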
# RanGTP-Impb inh – inhibitors of RanGTP-importin-beta interaction, primary screen, biochemical, FRET, CFP-Ran, YFP-importin-beta, homogeneous; 300,000 compounds, 1.1% hits; cell-free CFP-Ran/YFP-importin-beta FRET ratio; inhibition, % (concentration not given with the values);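 active means most replicates above 15%; inconclusive means exactly half above 15%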;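 further: 0% = DMSO wells and 100% = Ran loaded with GDP instead of GTP; wells of about 40 µL received 100 nL stock; the first replicate is given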
# Beta cell apopt – blocks beta cell apoptosis; AID 435005; protection from apoptosis, % (concentration not given with the values); 300,000 compounds, 0.8% hits; INS-1E cytokine-induced death, ATP luminescence, 48 h; percent of positive-control rescue, neutral wells zero;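 active means all replicates at 75% or more, or half of them and the mean; inconclusive means half reach 75% but not the mean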;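 further: 0% = cytokine-treated negative control wells and 100% = positive control rescue; higher means more ATP so stronger rescue from cytokine killing; wells of about 40 µL received 100 nL stock; the first replicate is given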
# LANA-H2A inh – blocks KSHV LANA binding to histone H2A/H2B. cell-free LANA-H2A/H2B peptide, fluorescence polarization. inhibition, % (test concentration not listed). 320,000 compounds, 0.6% hits; in the data active means inhibition mostly above about 10%, no sharp cut-off; inactive means mostly below about 6.7%;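 further: stock transfer was 7.5 nL into about 10 µL; 0% = median of vehicle wells and 100% = median of positive control wells; one replicate is shown; the record names a cut of 25% in any replicate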
# MLL AF4-AF9 inh – MLL-AF4/AF9 protein interaction inhibition | 350,000 compounds, 0.47% hits | inhibition, % at 10 µM | AlphaScreen, biotin-AF4 peptide binding to FLAG-AF9;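 active means every replicate reaching a set inhibition limit, whatever the replicate mean, cut at about 25% in these data; inconclusive means mean inhibition reaches that limit but some replicates miss it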;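 further: 0% = plate neutral control median and 100% = total signal loss; the record names both 10 and 1 µM as test concentration; the first replicate is given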
# Target sequence (P42568 whole entry, looked up): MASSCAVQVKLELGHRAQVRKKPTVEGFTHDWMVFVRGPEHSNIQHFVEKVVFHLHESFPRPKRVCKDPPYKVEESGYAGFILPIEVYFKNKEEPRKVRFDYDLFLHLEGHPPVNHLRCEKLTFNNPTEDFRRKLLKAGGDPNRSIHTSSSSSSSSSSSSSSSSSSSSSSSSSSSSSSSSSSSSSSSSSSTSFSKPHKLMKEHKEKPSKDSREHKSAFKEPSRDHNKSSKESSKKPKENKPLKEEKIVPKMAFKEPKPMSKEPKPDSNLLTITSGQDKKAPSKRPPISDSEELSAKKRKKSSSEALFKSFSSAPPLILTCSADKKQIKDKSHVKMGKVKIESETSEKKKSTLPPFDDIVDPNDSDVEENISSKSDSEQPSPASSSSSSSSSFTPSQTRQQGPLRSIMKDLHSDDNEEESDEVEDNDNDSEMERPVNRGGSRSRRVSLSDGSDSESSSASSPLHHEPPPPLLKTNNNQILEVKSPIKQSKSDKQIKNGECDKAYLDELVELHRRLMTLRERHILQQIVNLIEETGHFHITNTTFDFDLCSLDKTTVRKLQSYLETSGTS
# T cruzi repl – blocks replication of Trypanosoma cruzi. T. cruzi beta-gal in NIH3T3, luminescence, 90 h. inhibition, % (no concentration beside the values). 300,000 compounds, 1.4% hits. AID 1885;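 active means mean inhibition across valid replicates above about 55%, limit read from the data; inconclusive means mean below that limit but half or more replicates reach it; inactive means mean below it, under half of replicates reach it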;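 further: signal also drops with host cell toxicity which is not excluded here; 0% = plate median of DMSO wells and 100% = zero luminescence signal; higher percent means less beta-gal luminescence so fewer parasites; stock transfer was 50 nL into about 50 µL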
# A1 inh – inhibitors of the anti-apoptotic protein A1, read as caspase activation | MEF A1-2A-BIM cells, Caspase-Glo 3/7 luminescence, 3 h; percent of clofoctol response, vehicle zero | AID 2462 | caspase activation, % (no concentration beside the values) | 330,000 compounds, 0.066% hits;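 active means over half of replicate activation scores above 10%, or exactly half above 10 with the replicate mean above 10; inconclusive means replicate mean below 10 yet half the replicates above 10; inactive means over half of replicates below 10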;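 further: wells of about 30 µL received 50 nL stock; many hits fall short of the cut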
# Numbers without * were called inactive; ? = inconclusive; . = not tested or not shown; & = joins results of further samples.
SMILES,Vif TR-FRET,Calb FLC,RanGTP-Impb inh,Beta cell apopt,LANA-H2A inh,MLL AF4-AF9 inh,T cruzi repl,A1 inh
O=C(OCC(=O)N1CCOCC1)c1cccc(S(=O)(=O)N2CCCc3ccccc32)c1,27%,16,1.4,-1,-6.2,.,7,1.8
CC1CN(C(=O)c2ccc(Cl)c(S(=O)(=O)NCc3ccco3)c2)CC(C)O1 (stereo not given),.,.,.,-5,1.7,-4.8,.,-0.5
O=S(=O)(Nc1ccc(-c2cn3ccsc3n2)cc1)c1ccc2c(c1)OCCO2,1%,5,3.7,-8,6.9,.,22,-0.3
CC(C)n1nnnc1SCC(=O)Nc1cccc(F)c1,.,-4,-6.2,.,.,-1.4,4,.
COCC(C)NCC(=O)NC(C)CCc1ccccc1 (stereo not given),6%,15,1.9,.,0.9,.,-3,0.6
COc1ccc(NC(=O)COc2coc(CN3c4ccccc4CC3C)cc2=O)cc1 (stereo not given),5%,-12,-4.6,.,3.6,-0.3,-7,-0.3
COC(=O)c1ccc2c(=O)n(Cc3ccc(C(=O)NCCCN4CCC(C)CC4)cc3)c(=S)[nH]c2c1,-34%,5,2.6,2,1.5,3.7,-4,-1.5
Cc1ccc(Cn2ncc3c(N4CCN(CCc5ccccc5)CC4)ncnc32)cc1,.,3,4.6,5,2.8,9.9,14,-0.6
COc1ccc2c(c1)CCc1c(C(=O)Nc3c(C)nn(Cc4ccccc4)c3C)noc1-2,1%,25,1.2,34,2.6,.,26,-1.1
COc1ccc(CN2CCNC(=O)C2CC(=O)NCCCn2nnc3ccccc32)cc1C (stereo not given),.,-2,7.7,-8,4.6,1.9,15,-0.2
CC(C)CC(=O)NC(Nc1ccc([N+](=O)[O-])cc1)C(Cl)(Cl)Cl (stereo not given),.,-2,0.7,-7,.,.,-4,0.3
CCCS(=O)(=O)N1CCN(Cc2c[nH]c3ccccc23)CC1,16%,4,-3.7,3,1.2,3.5,-2,-0.3
Cc1cc(C)c(C(=O)OCC(=O)Nc2cccc(S(=O)(=O)N3CCCCC3)c2)c(C)c1,4%,-1,-1.8,3,0.9,?,10,-0.4
CCc1nnc(NC(=O)CCC(=O)N2CCN(S(=O)(=O)c3cc(Cl)ccc3OC)CC2)s1,.,7,1.4,-2,-1.4,-0.3,0,-0.3
O=C(CCCN1CCOC(c2ccccc2)C1)c1ccc(F)cc1 (stereo not given),1%,-4,?,-3,0.2,-7.8,3,-0.3
O=C(C1=C[C@H](c2coc3ccccc3c2=O)C[C@H](OCc2ccc(CO)cc2)O1)N1CCN(Cc2ccc3c(c2)OCO3)CC1,-11%,5,-0.9,6,-3.1,4.7,?,0.6
O=C(NCc1cccc(Cl)c1)c1cccnc1,-2%,21,-3.7,-10,-0.8,-0.5,4,-0.3
OC(c1ccccc1)(c1ccc(F)cc1)C(c1ccccc1)N1CCOCC1 (stereo not given),-5%,6,-4.3,6,2.8,.,4,0.2
S=C(Nc1ccccn1)c1ccccn1,2%&13%,-3,6.4,27,7.6,.,27,-5.0
O=C1N(Cc2ccc(F)cc2Cl)c2ccccc2C12OCCCO2,-4%,5,-1.9,-7,0.8,.,5,-3.4
CCOC(=O)c1cc(CC)sc1NC(=O)c1ccc2c(c1)OCCO2,2%,-6,5.5,-3,3.8,.,9,0.0
Cc1c(/C=N\NC(=O)C2COc3ccc(C(C)(C)C)cc3O2)c2ccccc2n1C (stereo not given),.,-1,2.1,.,-2.3,.,66*,0.7
CCCCON1C(=O)c2cccc3cccc(c23)C1=O,.,3,-6.2,-5,2.6,3.0,-20,-0.2
COc1ccc2cc(CN(C(=O)Nc3ccccc3)C3CCCC3)c(=O)[nH]c2c1,-4%,-2,0.2,4,-1.2,.,13,-0.7
CCOc1[nH]c(/N=C/c2ccco2)c(C#N)c1C#N,28%,.,.,-3,3.2,.,.,0.6
CCCCCC1CC(CC(=O)Nc2ccc([N+](=O)[O-])cc2)C(=O)O1 (stereo not given),.,-15,3.6,-1,6.5,-0.4,-4,0.7
Cc1cc(C(=O)CN2C(=O)NC(C)(c3cccc(Br)c3)C2=O)c(C)n1Cc1ccco1 (stereo not given),11%,-5,-0.2,10,-1.3,.,28,1.3
Cc1ccc(/C(=N\S(=O)(=O)c2ccc(Br)cc2)Nc2ccccc2C)cc1,.,4,?,.,5.1,2.7,17,0.9
Cc1ccc(SC(c2ccc(C)cc2)C(Cn2cncn2)C(=O)c2ccccc2)cc1 (stereo not given),10%,-5,2.8,-13,6.8,.,36,0.2
Cc1cccc(C2NS(=O)(=O)N=C2N)c1 (stereo not given),-4%,-4,0.6,5,-0.2,.,3,0.1
Cc1cccc(NC(=O)Cn2c(/C=C/c3ccccc3)nc3ccccc32)c1,.,-7,-3.1,80*,2.3,1.1,17,-0.4
NC(=O)NC(CC(=O)OCC(=O)NC(=O)NCc1ccco1)c1ccc(Cl)cc1 (stereo not given),4%,9,-1.4,-8,1.3,.,-7,0.0
CC12CCC(C(=O)N(c3ccccc3Cl)C1=O)C2(C)C (stereo not given),.,-21,-1.4,3,1.0,-0.8,-10,0.9
COc1ccc(C)cc1NC(=O)c1ccc(NS(=O)(=O)c2c(C)noc2C)cc1,.,9,0.1,-4,-3.1,-16,-8,0.2
CN(CC(=O)Nc1ccc(Cl)cc1F)C1=NS(=O)(=O)c2ccccc21,-12%,.,.,-2,2.9,4.8,.,0.2
CCc1cc(=O)oc2cc(OCC(=O)NCCCn3ccnc3)ccc12,.,2,2.3,-4,-4.4,-4.4,-9,2.2
O=C(NNc1nc2cc3c(cc2s1)OCCO3)c1ccc(F)cc1,17%,8,3.8,4,-2.2,2.2,-4,-0.9
O=C(N/N=C/c1ccco1)c1[nH]ncc1Br,.,-12,.,0,2.4,-0.9,.,-0.6
CC(=O)NC12CC3CC(C1)CC(C(=O)OCC(=O)c1cc(C)n(C)c1C)(C3)C2,.,.,.,1,-2.8,4.2,.,0.5
O=S(Cc1ccc(Br)cc1)Cc1nnc(SCc2ccc(Cl)cc2)n1-c1ccccc1 (stereo not given),0%,52,?,40,3.8,.,45,0.0
COC(=O)CSc1cc(C(F)(F)F)nc(-c2ccccn2)n1,-3%,-2,-3.5,0,-4.0,.,3,0.0
COc1ccccc1-c1oc2ccccc2c1C#CC1(N)CCCCC1,.,.,.,7,1.2,18,.,0.8
O=C(O)C1=C(C(=O)N2CCN(C(=O)c3ccco3)CC2)CCCC1,5%,-4,0.5,-4,1.9,.,-1,-0.2
Cc1cc(C)nc(Nc2nc(C)c3cc4c(cc3n2)OCO4)n1,-2%,0,-3.0,-2,-0.6,.,-10,2.0
c1ccc(-n2nc3c(ccc4cnnc43)[nH]2)cc1,-8%,-1,-2.1,0,-0.8,.,-3,0.5
CCN(CCCNC(=O)Cn1cc2c(n1)CCCC2)c1cccc(C)c1,11%,0,1.2,-4,-0.5,6.6,28,0.2
CS(=O)(=O)N1CCC(C(=O)Nc2ccc(F)cc2)CC1,.,-7,-1.5,6,3.8,-13,-8,0.3
Cc1cc(OCCOCCN(C)CCO)cc(C)c1Cl,2%,-5,0.8,0,-7.2,.,37,-0.3
O=c1[nH]c(C2CCN(S(=O)(=O)c3cccc(Cl)c3)CC2)nc2c1nnn2Cc1ccccc1,.,0,-3.1,.,.,2.1,21,.
CCC(C)[C@H](NS(=O)(=O)c1ccc(C)cc1)C(=O)N1CCC(C(=O)N[C@@H](Cc2ccccc2)C(=O)O)CC1 (stereo not given in full),.,-2,15,-1,0.1,-10,6,-0.1
COc1ccccc1NC(=O)Oc1ccc(NC(=O)c2ccco2)cc1,17%,-8,-2.0,-3,-0.3,.,-3,-1.6
O=c1c2ccccc2n2c(-c3cccc(F)c3)nnc2n1Cc1ccccc1,.,12,4.1,5,-6.1,2.5,23,0.6
COc1ccc(NS(=O)(=O)c2cn(C)cn2)c(OC)c1,.,3,-1.7,-2,0.3,-1.2,-6,1.6
COc1ccc(NC(=O)c2ccco2)cc1NC(=O)c1cc2ccccc2o1,23%,-2,-1.8,4,-1.5,.,27,0.0
CCOc1ccccc1C1NC(=O)NC(C)=C1C(=O)OC1CCCC1C (stereo not given),-5%,2,0.9,-7,-2.9,.,9,-0.3
CCC(=O)c1ccc(N2CCN(C(=O)c3cccs3)CC2)c(F)c1,.,1,0.5,-18,3.9,-8.5,1,0.7
Cc1cc(C)c(C#N)c(SCc2[nH]nc3c2C(c2ccc(F)cc2)C(C#N)=C(N)O3)n1 (stereo not given),-2%,23,0.0,-5,1.4,.,10,-0.1
COC(=O)c1ccccc1NC(=O)Cn1c(=O)oc2ccc(Cl)cc21,?,-5,5.1,-4,0.5,.,4,0.0
Cc1ccc(/C=N/NC(=O)c2ccc(-n3cccc3)cc2)o1,.,46,.,6,0.2,-1.5,.,0.8
O=C(NCC1CCCCC1)c1ccc(Cl)nc1,.,-6,-4.4,-1,-0.9,1.7,-9,-0.3

# Going on with the list.
SMILES,Vif TR-FRET,Calb FLC,RanGTP-Impb inh,Beta cell apopt,LANA-H2A inh,MLL AF4-AF9 inh,T cruzi repl,A1 inh
O/N=C/c1ccc2cccc(OCc3ccccc3)c2n1,0%,11,0.6,-3,2.3,-0.7,-7,0.1
Cc1ccc(-n2ncc3c(=O)n(CC#N)cnc32)cc1C,-1%,-4,0.0,-6,2.6,.,0,0.2
Cc1ccc(CNC(=O)Cn2nnc(C(=O)Nc3cc(C)ccc3C)c2N)cc1,.,-4,1.7,12,-3.0,-3.0,-2,-0.2
CCC/C(=C1/c2ccccc2C(=O)N1c1ccccc1)c1cnc(OC)nc1,.,.,.,6,4.0,19,.,-1.0
O=C(Nc1ccc(O)c(C(=O)O)c1)c1ccc2c(c1)C(=O)N(CC1CCCO1)C2=O (stereo not given),5%,11,3.2,.,1.7,.,-4,-2.4
CCOC(=O)c1c(-n2cccc2)sc2c1CCCC2=O,.,3,1.6,-6,-1.2,-4.8,11,-0.1
Cc1sc(NC(=O)CSc2nnc(COc3ccc(Cl)cc3)n2C)c(C#N)c1C,21%,6,1.7,3,0.8,.,12,1.0
Cn1cnnc1SCC(=O)NNC(=O)COc1ccc(Cl)cc1,14%,-1,2.1,-2,1.5,-1.2,-2,0.2
CCOC(=O)c1nnn(-c2nonc2N)c1CN1CCCCCC1,1%,-4,?,-5,-6.6,.,-5,1.8
Cc1cccc(NC(=O)c2cccc(C(=O)Nc3cccc(C)c3C)n2)c1C,.,-3,?,-4,2.0,-26,21,0.2
O=C(Nn1c(C2CCCCC2)nc2ccccc2c1=O)c1ccc([N+](=O)[O-])cc1Cl,-5%,-20,0.0,1,1.6,.,16,-0.5
CC(C)CCNc1nc(N)c([N+](=O)[O-])c(NCCO)n1,14%,-8,4.6,-12,-3.2,.,-8,0.3
O=C(NN1C(=O)C2C3C=CC(C4CC34)C2C1=O)c1cccc(Cl)c1 (stereo not given),-3%,-14,6.2,-15,-8.1,.,-2,0.7
CCNc1nc(NC(C)C)nc(SCCOC(=O)c2ccccc2)n1,-8%,41,-0.5,5,-12,2.5,18,-0.4
